FGF22 binding: binders of recombinant human FGF22 by thermal shift | SYPRO orange fluorescence; percent of sucrose octasulfate shift, DMSO zero | Q9HCT0 | calls only at 9.99 µM | hit rate 1.5% among 340,000;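 active means melting point raised past a set limit in the mean and every replicate; three in four hits are not shown here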
Target sequence (Q9HCT0 whole entry, looked up): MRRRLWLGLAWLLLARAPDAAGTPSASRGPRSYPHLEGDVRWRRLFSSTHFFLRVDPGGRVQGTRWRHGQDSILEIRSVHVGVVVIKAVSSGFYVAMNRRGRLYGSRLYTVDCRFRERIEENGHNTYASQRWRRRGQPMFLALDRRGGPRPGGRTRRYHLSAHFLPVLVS
UCH37 inh: human UCH37 deubiquitinating enzyme inhibition. inhibition, % (no concentration beside the values). hit rate 0.33% among 330,000. purified proteasome/UCH37, Ub-AMC cleavage fluorescence;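 active means mean of two replicates above 20%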;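 further: 0% = compound-free wells with enzyme and 100% = wells lacking proteasome; stock transfer was 100 nL into about 20 µL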
Target sequence (Q9Y5K5 whole entry, looked up): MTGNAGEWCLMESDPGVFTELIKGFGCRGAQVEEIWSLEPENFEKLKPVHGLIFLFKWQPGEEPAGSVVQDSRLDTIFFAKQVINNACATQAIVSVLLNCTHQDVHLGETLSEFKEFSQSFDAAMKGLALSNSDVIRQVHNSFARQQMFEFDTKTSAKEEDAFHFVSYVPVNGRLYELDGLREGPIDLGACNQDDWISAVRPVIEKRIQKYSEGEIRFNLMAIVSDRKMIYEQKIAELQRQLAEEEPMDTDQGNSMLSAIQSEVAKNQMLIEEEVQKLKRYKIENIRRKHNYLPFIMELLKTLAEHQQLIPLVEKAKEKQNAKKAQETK
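system = Proteasome-associated human UCH37 deubiquitinase | amount = 0.15 nM proteasome as dispensed | medium = pH 7.4 Tris-HCl (50 mM) with ovalbumin, ATP-MgCl2, DTT | incubation = 30 min preincubation with enzyme, 25 min cleavage at room temperature | detection = AMC fluorescence 355/460 nm | read-out basis = percent inhibition | controls = no-proteasome and no-compound wells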
E coli growth: E. coli growth inhibition. Escherichia coli growth, OD600, 23 h; stronger effect = lower value. OD600 absorbance (test concentration not listed). hit rate 0.21% among 330,000. AID 1053175;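 active means OD600 absorbance below the run mean of sample wells minus 3.6 SD, in any replicate, cut at about 0.56 in these data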;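 further: stock transfer was 300 nL into about 60 µL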
T cruzi repl: blocks replication of Trypanosoma cruzi. T. cruzi beta-gal in NIH3T3, luminescence, 90 h. inhibition, % (test concentration not listed). hit rate 1.4% among 300,000. AID 1885;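 active means mean inhibition across valid replicates above about 55%, limit read from the data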;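 further: signal also drops with host cell toxicity which is not excluded here; 0% = plate median of DMSO wells and 100% = zero luminescence signal; higher percent means less beta-gal luminescence so fewer parasites; stock transfer was 50 nL into about 50 µL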
Ecoli rRNA inh: inhibits bacterial ribosomal RNA function over humanized ribosomes; GFP signal change (wild-type ribosome), % (no concentration beside the values); hit rate 1.6% among 350,000; E. coli WT GFP vs humanized-ribosome RFP mutants, fluorescence, 24 h; stronger effect = lower value; DMSO median 0, no signal -100;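 active means significant combined selectivity score with lowered wild-type GFP, culture density cut under 30%, mutant RFP and density less affected; inactive means any of these conditions unmet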; further: one replicate is shown; some compounds called inactive have numbers as strong as hits
AF4-AF9 inh: MLL-AF4/AF9 protein interaction inhibition | hit rate 0.47% among 350,000 | AID 651704 | AlphaScreen, biotin-AF4 peptide binding to FLAG-AF9 | inhibition, % at 10 µM;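 active means every replicate reaching a set inhibition limit, whatever the replicate mean, cut at about 25% in these data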;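 further: 0% = plate neutral control median and 100% = total signal loss; the record names both 10 and 1 µM as test concentration; the first replicate is given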
Beta cell apopt: blocks beta cell apoptosis; INS-1E cytokine-induced death, ATP luminescence, 48 h; percent of positive-control rescue, neutral wells zero; protection from apoptosis, % (no concentration beside the values); hit rate 0.8% among 300,000; AID 435005;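 active means all replicates at 75% or more, or half of them and the mean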;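 further: 0% = cytokine-treated negative control wells and 100% = positive control rescue; higher means more ATP so stronger rescue from cytokine killing; wells of about 40 µL received 100 nL stock; the first replicate is given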
Bfl-1 A1 inh: inhibitors of the anti-apoptotic protein A1, read as caspase activation | hit rate 0.066% among 330,000 | MEF A1-2A-BIM cells, Caspase-Glo 3/7 luminescence, 3 h; percent of clofoctol response, vehicle zero | caspase activation, % (concentration not given with the values);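 active means over half of replicate activation scores above 10%, or exactly half above 10 with the replicate mean above 10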;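 further: wells of about 30 µL received 50 nL stock; many hits fall short of the cut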
Ecoli rRNA inh OD600: recorded beside Ecoli rRNA inh, whose call it bears; OD600 change, %; measured here: OD600 growth;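 optical density of the mix in the first replicate; 0 = DMSO median and -100 = no signal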
Ecoli rRNA inh RFP: further read-out of Ecoli rRNA inh, marked with its call; RFP signal change, %; measured here: RFP humanized mutant strains;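 first replicate; 0 = DMSO median and -100 = no signal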
The depositor's hits bear a star; i = inactive; . = no result given.

The line under a structure holds: FGF22 binding	UCH37 inh	E coli growth	T cruzi repl	Ecoli rRNA inh	Ecoli rRNA inh OD600	Ecoli rRNA inh RFP	AF4-AF9 inh	Beta cell apopt	Bfl-1 A1 inh
COc1cc2c(cc1OC)[C@@H]1Cc3ccc(OC)c(OC)c3CN1CC2
 : i	1.5	0.66	56*	14	8	-3.6	1.0	-15	0.1
Cc1cccn2c(=O)c3cc(S(=O)(=O)c4ccccc4)c(=N)n(CC4CCCO4)c3nc12 (stereo not given)
 : .	-354	0.69	18	.	.	.	.	7	0.6
O=C(COC(=O)C1CCN(S(=O)(=O)c2cccs2)CC1)c1ccccc1
 : i	5.0	0.72	-3	14	12	3.1	2.6	0	-0.5
O=C(COc1ccc(Br)cc1CO)Nc1ccc(F)cc1
 : .	-3.8	0.68	-2	-25	-24	-4.4	.	1	-0.3
COCCC1CCCCN1C(=O)c1cccc(OC2CCN(S(C)(=O)=O)CC2)c1 (stereo not given)
 : i	-1.3	0.69	-5	1	11	7.1	-1.2	-8	0.2
COc1ccc(C(=O)Nc2ccc3c(c2)CCCN3C(=O)c2cccs2)c(OC)c1
 : i	5.7	0.7	5	-5	-18	13	5.8	7	0.1
Cc1ccc(-c2noc(-c3ccccc3C(=O)N3CCCC3)n2)cc1
 : .	5.4	0.72	7	.	.	.	.	5	-1.4
CC(=O)N[C@@H](Cc1c[nH]c2ccccc12)C(=O)NC1CCCc2ccccc21 (stereo not given in full)
 : i	1.2	0.63	-9	-2	-23	-1.7	0.3	-3	0.3
Cc1ccc(OCC(=O)N/N=C/c2cccc3cccnc23)cc1
 : i	.	.	-1	-14	-2	0.7	-17	-4	-1.2
O=C(c1ccc2oc(CCc3ccccc3)nc2c1)N1CCC(O)CC1
 : i	2.4	0.69	1	3	2	0.2	-3.9	-3	-0.5
CCN1CCN(Cc2ccc(NC(=O)c3ccc(C)c(NC(=O)c4cccc(-c5cn[nH]c(=O)c5)c4)c3)cc2C(F)(F)F)CC1
 : .	1.7	.	4	.	.	.	.	-3	-0.6
Nc1c(C(=O)N/N=C/c2ccccc2Cl)oc2nc(-c3ccccc3)cc(-c3ccco3)c12
 : i	.	.	10	14	-1	7.0	-2.6	3	0.2
COc1cc(CN2CCCCCC2)cc(OC)c1
 : i	4.4	0.68	19	10	9	1.8	1.2	-4	-0.2
CC(C)C(NC(=O)c1ccccc1NC(=O)c1ccccc1)C(=O)NCCCn1ccnc1 (stereo not given)
 : .	1.9	0.61	-6	.	.	.	.	3	0.2
CSc1nc2ccc(S(=O)(=O)N3CCOCC3)cc2s1
 : i	6.6	0.7	-1	7	3	0.7	2.4	1	1.8
COc1ccc(-n2c(C)nc(=O)c(-c3ccccc3)c2C)cc1
 : .	1.3	0.73	.	.	.	.	.	-2	-0.5
CCOCCCNC(=O)C1(O)c2ccccc2NC(=O)N1c1ccc(Cl)c(Cl)c1 (stereo not given)
 : i	0.3	0.62	1	8	11	0.4	2.4	-1	0.9
COc1ccc(NC(=O)CN2CCN(C(=O)C3CCCO3)CC2)c(OC)c1 (stereo not given)
 : i	2.9	0.7	-4	4	4	-1.5	-3.9	-5	0.7
COc1ccc(NC(=O)COC(=O)Cn2cnc3ccccc3c2=O)c(OC)c1
 : i	-2.8	0.68	.	2	1	0.5	0.3	-5	-0.3
CCC(=O)N1CCc2cc(S(=O)(=O)N3CCCCCC3)ccc21
 : i	3.2	0.63	-25	0	2	0.6	-1.3	-1	-0.3
COc1cc(/C=C2\SC(=S)N(NS(=O)(=O)c3ccccc3)C2=O)ccc1O
 : i	14	0.7	1	-6	2	3.4	-23	3	-0.1
O=C(Nc1ccc(Br)cc1)C1CCCN1S(=O)(=O)c1cccs1 (stereo not given)
 : .	3.5	0.78	0	.	.	.	.	-5	-1.3
COC(=O)c1ccccc1NC(=O)CSc1nnc(C(C)NC(=O)c2ccc(Cl)cc2Cl)n1C (stereo not given)
 : .	1.9	0.72	-18	.	.	.	.	7	-0.4
Cc1cccc(-c2nnn(C/C(N)=N/O)n2)c1
 : i	-0.3	0.67	-28	7	6	1.6	-2.6	3	-0.3
CC[C@]12c3[nH]c4ccc(Cl)cc4c3CCN1C(=O)[C@@H](CC(=O)NCc1cccc(C(F)(F)F)c1)C[C@@H]2C(=O)N1CCN(C(=O)C2CC2)CC1
 : i	1.0	0.68	.	0	-3	2.8	3.7	.	.
COc1ccc(-c2cc(-c3ccc(C)cc3)nc(SCc3nnc(-c4ccccc4)o3)c2C#N)cc1OC
 : .	i	0.71	4	.	.	.	.	46	0.8
COC(=O)c1ccccc1N(C)S(=O)(=O)c1cc2c3c(c1)CCC(=O)N3CCC2
 : i	-0.2	0.72	2	0	0	5.1	-3.0	-9	0.1
N#C/C(=C/c1ccc(Cl)cc1)NC(=O)c1ccccc1
 : .	1.9	0.72	14	.	.	.	.	15	-0.8
CCCn1nnnc1NCc1cc(Br)ccc1OC
 : i	1.8	0.66	4	-6	-7	-2.0	0.7	-2	0.5
C[C@H](NC(=O)[C@@H]1CSC2c3ccccc3C(=O)N21)C(=O)NC1CCCCC1 (stereo not given in full)
 : i	2.2	0.67	-5	13	16	0.2	-7.1	0	-0.5

Next part.
The line under a structure holds: FGF22 binding	UCH37 inh	E coli growth	T cruzi repl	Ecoli rRNA inh	Ecoli rRNA inh OD600	Ecoli rRNA inh RFP	AF4-AF9 inh	Beta cell apopt	Bfl-1 A1 inh
CC1(C)C=Cc2c(ccc3c2OC[C@H](c2ccc(O)cc2O)C3)O1
 : i	.	.	.	-58	-79	-33	13	2	0.4
COC(=O)c1ccc(/C=N/N2CCN(Cc3ccccc3Cl)CC2)cc1
 : i	.	.	-2	9	8	0.6	2.1	1	1.5
CCn1ccnc1CN1CCc2c([nH]c3ccccc23)C1C(C)(C)C (stereo not given)
 : i	0.4	0.72	10	-56	-82	-14	20	5	0.2
CCc1ccc(OCC(O)Cn2c(N3CCCCC3)nc3c2c(=O)[nH]c(=O)n3C)cc1 (stereo not given)
 : i	2.9	0.67	5	-14	-19	-1.7	4.7	6	-0.7
N#Cc1ccc(COc2cccnc2[N+](=O)[O-])cc1
 : i	2.3	0.62	5	2	4	-1.4	-7.9	.	1.5
CCN(CC)S(=O)(=O)c1ccc(NC(=O)COc2nc3ccccc3nc2N2CCOCC2)cc1
 : .	3.1	0.7	18	.	.	.	.	0	0.3
CCCS(=O)(=O)N1CCCC(C(=O)NCCCOC(C)C)C1 (stereo not given)
 : .	1.6	0.69	-7	.	.	.	.	0	0.7
CCOC(=O)C1CCCN(Cc2nc(N)nc(Nc3ccc(OC)cc3)n2)C1 (stereo not given)
 : .	2.8	0.68	-2	.	.	.	.	-5	0.0
Cc1ccc(NC(=O)CCCNC(=O)c2ccc(Cl)cc2)cc1S(=O)(=O)N1CCCCC1
 : i	4.4	0.7	.	-2	-2	1.0	-3.9	.	.
CC(NC(=O)COc1ccc(Br)cc1)C1CCCO1 (stereo not given)
 : i	0.1	0.67	-1	.	.	.	-0.4	-2	0.2
Cc1ccc(-n2cccn2)c([C@@H]2C[C@H]3CN(C)C(=O)[C@]34CCCN24)c1
 : i	-1.8	0.74	11	7	8	3.2	0.2	-14	-0.9
COc1ccc(/C=C/C(=O)Oc2ccc(/C=N\NC(=O)c3ccc(F)cc3)cc2)cc1
 : i	.	.	-17	5	6	-3.6	7.5	-3	1.2
CCC(C)(C)NCC(=O)Nc1ccc(OC(F)(F)F)cc1
 : .	4.3	0.72	6	.	.	.	.	2	-1.4
Cc1occc1C(=O)NNC(=S)NC(=O)COc1ccc(Cl)cc1Cl
 : i	.	.	-19	-18	-34	1.5	0.6	-5	0.4
CC(C)c1nc(SCC(=O)NC2CCCCC2)c2ccccc2n1
 : i	4.8	0.64	8	5	15	-1.5	-0.2	-5	0.1
CC(=O)Nc1ccc(C2C(=O)c3ccccc3C2=O)cc1
 : i	3.0	0.69	-11	.	.	.	3.1	-4	-2.8
Cc1ccc(-c2nc3ncccc3o2)cc1NC(=O)C(C)C
 : i	-19	0.72	-15	12	5	0.9	2.8	0	0.6
CCOC(=O)C1=C(CSc2nnnn2C)N(C)C(=O)NC1c1ccccc1 (stereo not given)
 : .	6.6	0.78	-7	.	.	.	.	-1	1.1
O=C(NCC1CC1)C1CCCN(S(=O)(=O)c2ccc(-n3cnnn3)cc2)C1 (stereo not given)
 : .	2.0	0.7	-15	.	.	.	.	-5	-1.2
Fc1cccc(Cl)c1-c1nnc2ccc(N3CCOCC3)nn12
 : .	-2.2	0.7	2	.	.	.	.	-3	0.9
CN(C)C(CNC(=O)c1cc2ccccc2oc1=O)c1ccccc1 (stereo not given)
 : i	-24	0.65	-13	4	12	-1.9	3.8	-1	-2.9
C=CCSc1nnc(NC(=O)CSc2nnc(C)s2)s1
 : .	2.8	0.67	-8	.	.	.	.	0	1.8
COc1cc(/C=C2/CCCC(C(=O)C(F)(F)F)=C2O)ccc1O
 : i	1.8	0.72	-16	3	7	-0.2	-4.4	-2	0.4

Arranged by SMILES length (high to low): part of the list above
The line under a structure holds: FGF22 binding	UCH37 inh	E coli growth	T cruzi repl	Ecoli rRNA inh	Ecoli rRNA inh OD600	Ecoli rRNA inh RFP	AF4-AF9 inh	Beta cell apopt	Bfl-1 A1 inh
Cc1occc1C(=O)NNC(=S)NC(=O)COc1ccc(Cl)cc1Cl
 : i	.	.	-19	-18	-34	1.5	0.6	-5	0.4
CCCS(=O)(=O)N1CCCC(C(=O)NCCCOC(C)C)C1 (stereo not given)
 : .	1.6	0.69	-7	.	.	.	.	0	0.7
Cc1ccc(-c2nc3ncccc3o2)cc1NC(=O)C(C)C
 : i	-19	0.72	-15	12	5	0.9	2.8	0	0.6

4 of the entries above in order of the AF4-AF9 inh value, ascending:
| compound | AF4-AF9 inh |
| --- | --- |
| Cc1ccc(NC(=O)CCCNC(=O)c2ccc(Cl)cc2)cc1S(=O)(=O)N1CCCCC1 | -3.9 |
| Cc1occc1C(=O)NNC(=S)NC(=O)COc1ccc(Cl)cc1Cl | 0.6 |
| CC(=O)Nc1ccc(C2C(=O)c3ccccc3C2=O)cc1 | 3.1 |
| CCn1ccnc1CN1CCc2c([nH]c3ccccc23)C1C(C)(C)C (stereo not given) | 20 |

Not all compounds are listed, so the mix of outcomes need not match the whole.
